Screening data from PubChem BioAssay.
Vif TR-FRET = inhibitors of Vif binding to APOBEC3G peptide, primary screen, biochemical, TR-FRET, GST-Vif 1-94, biotin-A3G peptide, dose response retest (AID 1117319); TR-FRET GST-Vif / biotin-A3G peptide binding; higher % means a stronger effect; test concentration not given here; strong numbers were not always called active; inhibition, %; hits with a dose series show IC50 in µM; 260,000 compounds, 0.57% hits;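 active = above the screen mean plus three standard deviations and confirmed in dose response; inconclusive = results disagree or hit not tested in dose response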;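 also: Vif residues 1-94 fused to GST binding biotinylated APOBEC3G peptide 110-148; 0% = full assay without inhibitor and 100% = GST in place of GST-Vif; retest series ran down from 100 µM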
Ecoli growth = blocks Escherichia coli growth; AID 1053175; OD600, 23 h; hits give low values; 330,000 compounds, 0.21% hits; OD600 absorbance (concentration not given with the values);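 active = OD600 absorbance below the run mean of sample wells minus 3.6 SD, in any replicate, cut at about 0.56 in these data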;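 also: stock transfer was 300 nL into about 60 µL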
RanGTP-Impb inh = disruptors of Ran-importin-beta complex formation – biochemical, FRET, CFP-Ran, YFP-importin-beta, homogeneous, primary screen; cell-free CFP-Ran/YFP-importin-beta FRET ratio; 300,000 compounds, 1.1% hits; AID 2216; inhibition, % (test concentration not listed);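 active = most replicates above 15%; inconclusive = exactly half above 15%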;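 also: 0% = DMSO wells and 100% = Ran loaded with GDP instead of GTP; wells of about 40 µL received 100 nL stock; the first replicate is given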
HNF4A DNA FP = change in binding of human HNF4 alpha to DNA; HNF4a-FITC DNA binding, fluorescence polarization, 1 h; activity change, % at 10 µM; 360,000 compounds, 0.3% hits; AID 1224865; in the data active = activity change above about 30%, passing the limit was not always enough;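 also: controls were the assay level and a saturating level of protein; the project sought stronger binding though the title names inhibitors; some compounds called inactive have numbers as strong as hits; positive values seem to mean higher polarization but the record does not say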
UCH37 inh = inhibitors of human deubiquitinating enzyme UCH37. Q9Y5K5. inhibition, % (no concentration beside the values). 330,000 compounds, 0.33% hits. purified proteasome/UCH37, Ub-AMC cleavage fluorescence. AID 588478;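 active = mean of two replicates above 20%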;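 also: 0% = compound-free wells with enzyme and 100% = wells lacking proteasome; stock transfer was 100 nL into about 20 µL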
Target sequence (Q9Y5K5 whole entry, looked up): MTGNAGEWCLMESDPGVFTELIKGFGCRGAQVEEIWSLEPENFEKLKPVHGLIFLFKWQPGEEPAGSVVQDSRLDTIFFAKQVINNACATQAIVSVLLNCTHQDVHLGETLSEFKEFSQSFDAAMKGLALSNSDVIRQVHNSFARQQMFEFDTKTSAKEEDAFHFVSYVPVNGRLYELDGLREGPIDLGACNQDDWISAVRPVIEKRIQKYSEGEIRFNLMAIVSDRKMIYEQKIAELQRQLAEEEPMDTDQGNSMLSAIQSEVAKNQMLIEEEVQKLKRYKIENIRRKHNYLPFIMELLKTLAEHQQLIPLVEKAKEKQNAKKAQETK
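Material: Human UCH37 enzyme supplied as purified proteasome complex | Schedule: 30 min compound-proteasome preincubation then 25 min substrate reaction, room temperature | Detection: AMC fluorescence from Ub-AMC cleavage, excitation 355 nm, emission 460 nm | Benchmarks: Wells without proteasome as full block, compound-free enzyme plus substrate as uninhibited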
AF4-AF9 inh = inhibitors of human MLL-AF4/AF9 interaction | AlphaScreen, biotin-AF4 peptide binding to FLAG-AF9 | inhibition, % at 10 µM | 350,000 compounds, 0.47% hits | P42568;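 active = every replicate reaching a set inhibition limit, whatever the replicate mean, cut at about 25% in these data; inconclusive = mean inhibition reaches that limit but some replicates miss it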;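 also: 0% = plate neutral control median and 100% = total signal loss; the record names both 10 and 1 µM as test concentration; the first replicate is given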
Target sequence (P42568 whole entry, looked up): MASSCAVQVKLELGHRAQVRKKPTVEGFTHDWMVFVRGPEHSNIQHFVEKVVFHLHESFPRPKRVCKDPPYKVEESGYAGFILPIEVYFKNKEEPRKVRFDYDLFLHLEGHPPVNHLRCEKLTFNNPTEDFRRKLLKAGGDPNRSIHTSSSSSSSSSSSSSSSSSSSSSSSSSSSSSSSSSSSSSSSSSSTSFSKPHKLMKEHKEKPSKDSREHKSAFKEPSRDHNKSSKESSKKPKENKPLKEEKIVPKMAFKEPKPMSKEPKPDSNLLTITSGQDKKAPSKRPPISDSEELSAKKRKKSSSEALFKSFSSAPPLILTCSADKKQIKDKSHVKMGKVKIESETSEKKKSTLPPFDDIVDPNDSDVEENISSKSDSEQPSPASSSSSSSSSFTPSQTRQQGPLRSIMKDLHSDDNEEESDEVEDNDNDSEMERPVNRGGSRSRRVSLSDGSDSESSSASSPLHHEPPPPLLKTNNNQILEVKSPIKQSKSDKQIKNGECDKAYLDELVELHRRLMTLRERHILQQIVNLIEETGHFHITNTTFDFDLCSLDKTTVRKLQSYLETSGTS
FGF22 binding = FGF22 (human) thermal shift binding. Q9HCT0. recombinant FGF22 thermal shift, SYPRO orange fluorescence; percent of sucrose octasulfate shift, DMSO zero. calls only at 9.99 µM. 340,000 compounds, 1.5% hits. AID 651658;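 active = melting point raised past a set limit in the mean and every replicate; inconclusive = no clear call; three in four hits are not shown here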
* hit, by the source's call; i = inactive; ? = inconclusive; nt = not tested or not shown; + = active, no number; & = joins results of further samples. A portion of the library; the hit share may differ from the screen's.

Vif TR-FRET,Ecoli growth,RanGTP-Impb inh,HNF4A DNA FP,UCH37 inh,AF4-AF9 inh,FGF22 binding,structure
3.5%,0.655,nt,-4.2,1.9,2.2,i,CCN(CC)S(=O)(=O)c1cccc(NC(=O)COC(=O)C2=COCCO2)c1
5.0%,0.677,-1.9,-2.7,1.3,nt,nt,CC(Sc1nnc(C2CCCCC2)n1N)C(=O)NCc1ccc2c(c1)OCO2 (stereo not drawn)
13.1%,0.68,?,-0.9,0.8,-4.7,i,CCN(CC)S(=O)(=O)c1ccc(N2CCOCC2)c(NS(=O)(=O)c2ccc(C)cc2)c1
14.8%,0.724,-3.0,-1.9,5.4,1.0,i,COc1ccc([N+](=O)[O-])cc1NC(=O)C1(c2ccc(OC)c(OC)c2)CCOCC1
nt,0.646,4.6,2.5,1.5,nt,nt,CCCCCCCC(O)CC(CC1CCCCC1)C(=O)NN (stereo not drawn)
-4.4%,nt,nt,-0.2,nt,-0.4,i,O=C(Nc1ccccc1Cl)c1ccccc1CC(O)(c1ccccc1)c1ccccc1
-0.2%,0.759,5.9,-1.3,2.8,-3.4,i,COc1ccc(C2CC(c3c(Cl)cccc3Cl)n3nc(N)nc3N2)cc1 (stereo not drawn)
nt,nt,nt,-0.2,nt,-0.7,i,Cc1cc(-c2ccc(Br)cc2)n2nc(C)cc2n1
nt,0.667,-4.0,0.2,-0.4,-6.6,i,N#Cc1ccccc1NC(=O)c1ccc2c(c1)OCCO2
1.5%,0.694,0.0,-1.5,-1.2,0.7,i,CS(=O)(=O)N1CCCC(C(=O)N2CCN(c3cccc(Cl)c3)CC2)C1 (stereo not drawn)
-7.8%,0.705,-3.8,1.7,2.8,1.9,i,COc1ccc(C(=O)N(c2ccc(C)cc2)C2C=CS(=O)(=O)C2)cc1OC (stereo not drawn)
3.4%,0.677,0.1,0.5,2.7,-3.4,i,O=C(CSc1nnc(-c2ccncc2)o1)N1CCCCCC1
-6.1%,0.686,0.5,1.0,0.2,2.3,i,Cc1sc(NC(=O)C2=COCCO2)nc1-c1ccc(Br)cc1
-4.8%,0.698,3.3,0.8,3.2,-1.8,i,Cc1sc2ncn(CC(=O)N3CCN(c4ccc(F)cc4)CC3)c(=O)c2c1S(=O)(=O)N1CCOCC1
1.9%,0.699,4.2,3.0,3.1,nt,nt,COc1ccc(OC)c2[nH]c(=O)c(CCNC(=O)c3ccc(S(=O)(=O)N(C)C)cc3)cc12
nt,nt,nt,1.8,nt,-3.7,i,Cc1ccc(CN2CC(N3CCN(C)CC3)CS2(=O)=O)cc1 (stereo not drawn)
7.8%,0.688,-1.3,0.7,7.0,0.4,nt,Cc1ccc(NC(=O)NNC(=O)c2snnc2C)cc1
?,0.702,5.5,3.8,-0.4,3.3,nt,COc1ccc(C2N=C(c3ccccc3)C(C)(C)N2O)cc1 (stereo not drawn)
-1.3%,nt,nt,5.3,nt,0.7,i,Cc1cc(NC(=O)COC(=O)COc2ccc(Cl)c(C)c2)no1
-2.6%,0.704,-1.9,0.6,4.6,nt,nt,COc1ccc(C(C)=O)cc1COC(=O)Cc1n[nH]c(=O)c2ccccc12
-4.2%,nt,nt,-1.9,nt,-2.5&-2.2,i,C[C@H](CO)N1C[C@H](C)[C@@H](CN(C)C(=O)c2cnccn2)Oc2ncc(Br)cc2C1=O
2.6%,nt,-2.0,4.3,nt,2.3,+,CC(=O)Nc1cccc(C(=O)N/N=C/c2c[nH]c3ccccc23)c1
nt,0.743,0.8,1.3,2.1,-11.9,i,COc1ccc(-c2nc(CS(=O)(=O)CC(=O)NCCc3ccc(C)cc3)c(C)o2)cc1
-3.8%,0.654,nt,-4.1,3.1,1.9,i,CC(C)NS(=O)(=O)c1ccc(NC(=O)C(C)OC(=O)CCC2CCCC2)cc1 (stereo not drawn)
-5.3%,0.717,-5.0,-0.6,7.1,-1.8,i,O=C(CCCN1C(=O)C(c2ccccc2)Oc2cccnc21)Nc1cccc(F)c1 (stereo not drawn)
0.1%,0.744,-2.6,0.7,2.4,nt,nt,CCCCNC(=O)c1ccccc1NC(=O)CN(c1ccccc1)S(=O)(=O)N(C)C
-5.8%,0.739,nt,-2.6,-176.8,1.2,i,COc1ccc(C)cc1NC(=O)c1cnc2scc(C)n2c1=O
-1.0%,0.712,2.6,-1.2,3.1,nt,nt,Cc1ccccc1NC(=O)c1cccc2nccnc12
nt,0.684,5.6,-6.7,0.0,-0.2,i,O=C(CN(Cc1cccs1)C(=O)CNS(=O)(=O)c1ccc(Cl)cc1)NCC1CCCO1 (stereo not drawn)
6.8%,0.685,-1.0,2.5,2.1,-0.4,i,O=C(O)CSc1nc2c(c(C(F)(F)F)n1)CCc1ccccc1-2
nt,nt,nt,2.5,1.0,-2.8,i,Cc1noc(C)c1S(=O)(=O)N(C)C[C@H]1Oc2ccc(NC(=O)NC3CCCCC3)cc2C(=O)N([C@H](C)CO)C[C@@H]1C
nt,nt,-3.1,-2.2,nt,0.2,i,C/C(CC(=O)Nc1ccc(N(C)C)cc1)=N\NC(=O)c1ccccc1F
nt,nt,nt,4.6,nt,-2.7,i,CC(C)NC(=O)C1C(c2ccc(C(F)(F)F)cc2)=Nc2ccccc2N1C(=O)c1cc2ccccc2[nH]1 (stereo not drawn)
nt,0.732,0.0,-2.3,4.3,9.2,i,COc1cc(OC)cc(C(=O)N[C@H](C(=O)Nc2cccc(S(=O)(=O)N3CCCC3)c2)C(C)C)c1
nt,0.666,-3.9,4.8,-1.4,10.5,i,CSc1oc(-c2ccco2)nc1S(=O)(=O)c1ccc(C)cc1
5.0%,0.75,0.0,-3.2,-0.2,nt,nt,CSc1nsc(SCCN2C(=O)c3ccccc3C2=O)n1
-1.3%,0.699,1.8,-0.2,1.3,-5.8,i,CCN(CC)C(=O)c1[nH]cnc1C(=O)Nc1ccc(OC)cc1
-11.4%,0.616,nt,-0.3,1.5,-0.4,i,CC(OC(=O)c1ccco1)C(=O)Nc1ccc(C(F)(F)F)cc1 (stereo not drawn)
1.7%,0.703,3.4,-0.2,5.6,nt,nt,COc1ccc(CC(=O)c2ccccc2C(=O)O)cc1
nt,0.66,?,-0.2,2.3,2.5,i,COCc1cc(C)nc(SCC(=O)Nc2ccccc2N2CCOCC2)c1C#N
6.1%,0.68,0.3,4.6,6.6,-2.1,i,CCCC(=O)OCC(=O)NCc1ccc(Cl)cc1
6.3%,0.734,-3.4,0.1,0.4,nt,nt,CCOC(=O)C1=C(C)Nc2ccccc2N=C1NC(=O)c1cccc(S(=O)(=O)NCc2ccccc2)c1
nt,0.719,-2.2,2.1,7.1,2.2,i,CCc1cccc(C)c1NC(=O)C1CCCN(S(C)(=O)=O)C1 (stereo not drawn)
nt,0.713,1.1,-0.3,2.5,-6.8,i,COc1ccc(S(=O)(=O)N(CC(=O)NCC2CCCO2)c2ccc(Cl)cc2)cc1 (stereo not drawn)
28.6%,nt,-2.1,-1.9,nt,8.0,i,CC(/C=N/NC(=O)c1cccnc1)=C\c1ccco1
1.7%,0.717,-0.7,0.4,3.0,-0.1,i,O=C(O)CC(C(=O)Nc1ccc(Cl)cc1)N1CCCCCC1 (stereo not drawn)
-14.4%,0.681,1.2,3.3,3.1,1.4,i,Cc1n[nH]c(=O)n1-c1ccc(C(C)(C)C)cc1
nt,0.702,1.4,1.2,10.1,3.7,i,O=C(C1=C(O)C(=O)N(CCN2CCOCC2)C1c1cccc(Br)c1)c1cc2ccccc2o1 (stereo not drawn)

Some of these compounds in order of molar mass, descending:
Vif TR-FRET,Ecoli growth,RanGTP-Impb inh,HNF4A DNA FP,UCH37 inh,AF4-AF9 inh,FGF22 binding,structure
6.3%,0.734,-3.4,0.1,0.4,nt,nt,CCOC(=O)C1=C(C)Nc2ccccc2N=C1NC(=O)c1cccc(S(=O)(=O)NCc2ccccc2)c1
nt,0.713,1.1,-0.3,2.5,-6.8,i,COc1ccc(S(=O)(=O)N(CC(=O)NCC2CCCO2)c2ccc(Cl)cc2)cc1 (stereo not drawn)
1.7%,0.703,3.4,-0.2,5.6,nt,nt,COc1ccc(CC(=O)c2ccccc2C(=O)O)cc1

Remaining list, next part:
Vif TR-FRET,Ecoli growth,RanGTP-Impb inh,HNF4A DNA FP,UCH37 inh,AF4-AF9 inh,FGF22 binding,structure
-3.6%,0.688,-2.3,nt,-27.7,nt,nt,CCSc1nc2c(sc3nc(C)cc(C)c32)c(=O)[nH]1
32.0%,0.64,1.3,-1.8,6.2,1.6,i,CC1CCCN(C(=O)c2cccc(S(=O)(=O)Nc3cc(C(F)(F)F)ccc3Cl)c2)C1 (stereo not drawn)
5.4%,0.743,-0.9,-1.1,-180.0,-3.2,i,CCNc1ccccc1C(=O)O
-4.9%,0.696,-0.2,2.4,2.7,nt,nt,COc1cc(CNCc2cccs2)ccc1OCC(N)=O
6.5%,nt,-1.6,4.3,0.4,-0.1,i,C[C@@H](CN1C2=NC[C@H](C)N2C[C@H]1Cc1ccc(O)cc1)NC(=O)CCC1CCCCC1
nt,0.624,-1.2,1.6,7.9,0.5,i,CC(=O)N1CCN(c2ccc(NC(=O)c3ccc([N+](=O)[O-])o3)cc2Cl)CC1
-2.4%,nt,nt,-0.1,nt,-5.7,i,c1ccc(OC2CCCCC2N2CCOCC2)cc1 (stereo not drawn)
nt,0.697,7.5,1.9,-2.5,nt,nt,O=c1[nH]c(CN2CCN(S(=O)(=O)c3ccc(Cl)cc3)CC2)nc2cc(Cl)ccc12
nt,0.676,3.2,1.1,1.7,-5.2,i,Cn1c(SCC(=O)NC(=O)c2cccc([N+](=O)[O-])c2)nnc1-c1ccc(F)cc1
30.1%,0.746,5.1,1.9,3.9,nt,nt,COc1ccc(/C=C2\CCc3ccccc3C2=O)cc1Cn1nc(C)cc1C
1.6%,nt,nt,2.1,nt,-0.8,i,O=C(NCc1cccnc1)C1C2C=CC(C2)C1C(=O)Nc1cccc(C(F)(F)F)c1 (stereo not drawn)
-4.5%,nt,nt,3.9,nt,-0.5,i,COc1ccc(CSc2n[nH]c(=O)[nH]c2=O)cc1
-2.5%,0.699,4.0,2.3,-7.1,-4.4,i,Nc1ccc(C(=O)Nc2nc3ccccc3s2)cc1
7.5%,0.696,2.1,-1.0,0.4,-1.8,i,Cc1c(C(=O)NCCN2CCCC(O)C2)oc2c(F)cccc12 (stereo not drawn)
-5.4%,0.62,-3.9,2.0,-0.3,-0.1,i,Cc1cc(C)n(C(=O)c2ccc(C)c(Br)c2)n1
2.9%,0.677,3.5,3.0,-2.8,-3.1,i,COc1ccc(C)cc1NC(=O)c1nnn(Cc2cccc(F)c2)c1N
5.7%,0.684,-6.0,-0.4,-3.3,33.6*,i,COc1ccc(-c2nc(N3CCN(C)CC3)sc2-c2ccc(OC)cc2)cc1
nt,0.693,1.1,-1.2,6.3,2.2,i,COc1cccc(NC(=S)NCc2ccccc2)c1
